Screening data deposited in PubChem BioAssay by National Center for Advancing Translational Sciences (NCATS).
Rango-impB inh – Rango-importin beta binding inhibition; Q14974; Rango CFP/YFP FRET sensor + importin beta, 45 min; Potency, µM (series often up to 92.2 µM), inactives show at the highest dose inhibition of complex formation; 340,000 compounds, 0.031% hits; AID 540263; active = rising FRET ratio curve, often small or poorly fitted; inconclusive = mostly compound fluorescence or quenching in the first reads; inactive = flat curves in all reads;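 further: potency means the concentration at half of the fitted maximal effect; 0% = DMSO wells and 100% = buffer wells lacking importin beta; nearly all actives have a fitted effect of over 15% in size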
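FRET biosensor (snurportin 1 IBB flanked by EYFP and cerulean), 50 nM, with compound 5 min, then 0.125 microM importin beta in PBS, 1 mM DTT, 0.02% Tween-20, 0.1% BSA. CFP/YFP ratio read after 45 min at room temperature; pre-read flags interference.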
miR-21 reporter – raises the signal of a miR-21 reporter; 340,000 tested, under 10 active; Potency, µM (series often up to 38.3 µM), inactives show top-dose reporter change, positive = more light; AID 2288; HeLa miR-21 FLuc reporter, luciferase, 48 h; active = well fitted rising curve with a large enough effect; inconclusive = small, poorly fitted or top-dose-only effect; inactive = no such curve, though single readings can be large or run the other way;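 further: % of control where 0% means no effect; miR-21 action dims this reporter so a rising signal means less miR-21 action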
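Using DMEM plus 10% FBS, HeLa miR-21-FLuc cells are incubated with test compounds (final up to about 40uM) for 48 hours; firefly luciferase signal is then imaged following reagent-mediated lysis.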
Rango release inh – prevents RanGTP from dissociating the Rango-importin beta complex; O95149+P62826; Biochemical FRET Rango-importin beta, RanGTP-induced dissociation; Potency, µM (series often up to 46.1 µM), for inactives: at the highest dose activity change, negative = inhibition; 340,000 compounds, 0.071% hits; AID 540253; active means falling FRET ratio curve, often poorly fitted, with flat reads before Ran was added; inconclusive means other falling curves, or compound fluorescence or quenching; inactive means flat or rising ratio curve;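 further: potency means the concentration at half of the fitted maximal effect; % of control where 0% means no effect; nearly all actives have a fitted effect of over 45% in size; -100% = wells without RanGTP and RCC1; the record marks most hits as doubtful in a second field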
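Recombinant Rango FRET biosensor (EYFP–snurportin 1 IBB–cerulean CFP10) at 0.1 uM premixed with 0.25 uM importin beta in PBS, 1 mM DTT, 0.02% Tween-20, 0.1% BSA. Compound added 5 min; RanGTP-RCC1 (0.6 uM Ran, 2 mM GTP, 0.2 uM RCC1) then triggers release, read at 45 min.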
GLA inh pH 4.5 – inhibitors of human alpha-galactosidase A at pH 4.5; P06280; purified enzyme, 4-MU-alpha-Gal fluorescence, pH 4.5; activity change, negative = inhibition, % at 105 µM; 230,000 tested, under 10 active; AID 1467; inconclusive = small, poorly fitted or top-dose-only inhibition, or a rising curve; inactive = flat fitted curve, though single readings scatter; no compound was filed as active;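 further: 0% = full activity with enzyme and -100% = basal without enzyme; dose as in the result columns while the protocol names 77 µM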
Target sequence (P06280 whole entry, looked up): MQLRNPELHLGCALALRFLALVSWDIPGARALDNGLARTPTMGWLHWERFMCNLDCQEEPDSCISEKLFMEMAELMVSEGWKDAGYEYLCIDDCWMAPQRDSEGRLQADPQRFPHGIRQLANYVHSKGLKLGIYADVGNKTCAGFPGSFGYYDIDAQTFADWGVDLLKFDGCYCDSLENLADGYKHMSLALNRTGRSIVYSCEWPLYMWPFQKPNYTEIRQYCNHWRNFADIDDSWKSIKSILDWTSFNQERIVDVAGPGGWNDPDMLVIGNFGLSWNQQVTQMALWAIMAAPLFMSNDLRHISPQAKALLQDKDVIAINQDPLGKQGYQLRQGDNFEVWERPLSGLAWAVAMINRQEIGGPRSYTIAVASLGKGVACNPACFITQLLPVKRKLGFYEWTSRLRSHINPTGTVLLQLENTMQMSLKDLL
An asterisk follows results filed as active; u = inconclusive; x = not tested or not shown; & = joins results of further samples.

Sample of the layout, 2 compounds:
Fields – Rango-impB inh | miR-21 reporter | Rango release inh | GLA inh pH 4.5
Cc1ccc(Cl)cc1NC(=S)N/N=C/c1cccc2ccccc12
 : u | u | 1.6% | -2.4
COC(CNS(=O)(=O)c1cc2c3c(c1)CCN3C(=O)CC2)OC
 : -1.5% | 2.1% | -2.3% | x

This part in full (from the top)
Fields – Rango-impB inh | miR-21 reporter | Rango release inh | GLA inh pH 4.5
Cc1ccc(Cl)cc1NC(=S)N/N=C/c1cccc2ccccc12
 : u | u | 1.6% | -2.4
COC(CNS(=O)(=O)c1cc2c3c(c1)CCN3C(=O)CC2)OC
 : -1.5% | 2.1% | -2.3% | x
O=C(CCc1nc2sc3c(c2c(=O)[nH]1)CCCC3)N1CCN(c2ccccc2)CC1
 : u | x | -11.9% | x
COc1ccc(CN(CCC#N)C(=S)NC(=O)c2ccccc2)cc1
 : 2.3% | -21.7% | -7.9% | -7.3
O=C(NCCC1=CCCCC1)C1CCN(C(=O)c2ccc(Cl)cc2)CC1
 : -3.7% | -26.2% | -7.9% | -2.7
Cc1cc(NC(=O)CSc2n[nH]c(=O)[nH]c2=O)ccc1Br
 : 4.4% | -2.9% | 9.8% | 4.4
COc1ccc(OCCCC(=O)OC(C)C(=O)Nc2cccc(C(C)=O)c2)cc1 (stereo not drawn)
 : 2.5% | 1.1% | 22.3% | x
Cc1nn(CC(=O)NNC(=S)Nc2ccccc2)c(C)c1[N+](=O)[O-]
 : -2.3% | -4.8% | 6.4% | 2.0
O=C(COC(=O)/C=C/c1cccc(F)c1)NC(=O)NC1CCCC1
 : -0.4% | x | -4.6% | x
Cc1ccc(S(=O)(=O)Nc2cc(C(=O)N3CCOCC3)ccc2N2CCCCC2)cc1
 : -5.1% | -8.4% | 19.2% | 6.5
COc1nc(N(C)C)nc(-n2nnc(C(C)=O)c2C)n1
 : -0.6% | -8.2% | 1.1% | 6.4
COC(=O)c1ccccc1NC(=O)CN(C)S(=O)(=O)c1ccc(OC)c(C)c1
 : -3.1% | -1.4% | 4.3% | -6.6
CCCOc1ccc(/C=N/O)cc1
 : 2.2% | -16.2% | 11.3% | 6.0
NS(=O)(=O)c1ccc(CCNC(=O)CCC2COc3ccccc3O2)cc1 (stereo not drawn)
 : -0.1% | 3.9% | 10.2% | -0.1
Cc1cc(C)c2[nH]c(=O)c(C(c3nnnn3C3CCCC3)N3CCOCC3)cc2c1 (stereo not drawn)
 : x | 1.8% | x | 4.6
CCOC(=O)N1CCN(C(=O)CN(C2CCCCC2)S(=O)(=O)c2ccc(C)cc2)CC1
 : 3.4% | -1.1% | -13.0% | -2.8
COc1cccc(C(=O)NCCSCc2ccccc2Cl)c1
 : -3.0% | -21.3% | -4.1% | x
Cc1cc(CNC(=O)CCc2nnc(CCCc3ccccc3)o2)nn1C
 : 0.0% | -32.8% | 0.0% | 2.5
O=C(Nc1cc(S(=O)(=O)N2CCCCC2)ccc1N1CCCCC1)c1ccncc1
 : -0.7% | -4.3% | 9.4% | 6.4
Cc1nc(NC(=O)c2ccccc2)sc1C1(C)CC(c2ccccc2F)=NO1 (stereo not drawn)
 : 2.2% | -28.7% | -9.0% | 0.9
COc1cc2c(cc1OC)C(c1ccccc1)N(S(C)(=O)=O)CC2 (stereo not drawn)
 : u | 0.3% | 14.9% | -0.7
Nc1nc(SCc2ccccc2)c2ncn(C3CCCCC3)c2n1
 : -1.8% | x | -2.4% | x
CC1CCCC(NC(=O)COC(=O)c2ccccc2[N+](=O)[O-])C1C (stereo not drawn)
 : -2.8% | -11.5% | -9.6% | -2.8
Cc1cc2cc(CNC(=O)NC3CCCCC3)ccc2n1C
 : 3.8% | -9.8% | 0.8% | 1.6
O=[N+]([O-])c1ccc(OCC(O)CN2CCN(c3ccccc3F)CC2)cc1 (stereo not drawn)
 : -0.9% | -5.1% | 9.9% | -3.2
CCOC(=O)CSc1nc2cc(C)cc(C)c2cc1C#N
 : 3.5% | -30.9% | 0.9% | 1.0
Cc1nn(C)c(C)c1NC(=O)c1cnn2c(C(F)F)cc(-c3ccccc3)nc12
 : x | -4.7% | x | -0.1
COc1ccc(NS(=O)(=O)N2CCCCC2)cc1
 : 4.5% | x | -4.6% | x
O=C(O)COc1ccc(/C=C2\SC(=Nc3ccccc3)N(c3ccccc3)C2=O)cc1
 : 0.9% | 0.2% | -1.2% | -8.9
COc1ccc(N2CCN(CC(=O)NCc3ccc(Cl)cc3)CC2)cc1
 : 0.7% | 1.0% | -9.2% | x
O=C(COc1ccccc1)NNC(=O)c1ccc(Cl)cc1
 : 4.6% | x | 1.3% | x
N/C(Cc1ccc(Cl)cc1)=N\OC(=O)C1CCCCC1
 : 0.3% | -27.2% | -8.1% | -9.1
Cc1ccc(-c2nc(NCc3cccnc3)c3ccccc3n2)cc1
 : -0.9% | -36.8% | 9.6% | -10.8
CC(C)(C)[C@@H]1COC(=O)[C@H](Cc2ccc(F)cc2)C/C=C\C[C@@H](CC(=O)NCCO)C(=O)N1
 : -0.9% | x | 13.5% | x
CS(=O)(=O)N(CC(=O)Nc1ccccc1C(=O)N1CCOCC1)c1ccc2c(c1)OCO2
 : 1.3% | -3.2% | 3.2% | -0.4
CN(C(=O)C(C)(C)C)C1c2c(ccc3ccccc23)OCC1CO (stereo not drawn)
 : 2.6% | -5.9% | 0.9% | x
Cc1cc(C2(O)C(=O)Nc3ccccc32)ccc1F (stereo not drawn)
 : -3.2% | 0.3% | -13.2% | x
CC(C)CCNC(=O)C(c1ccncc1)N(Cc1cccs1)C(=O)Cn1nnc(-c2ccc(F)cc2)n1 (stereo not drawn)
 : -4.6% | -15.5% | -1.7% | u
Cc1ccc(OCCCCn2cnc3ccccc32)cc1
 : 1.3% | 2.1%&-0.6% | -0.2% | 1.2
COc1ccc(OCCCC(=O)Nc2nncs2)cc1
 : -1.8% | -17.6% | 0.1% | -1.3

Exported field by field: part of the list above
O=C(COc1ccccc1)NNC(=O)c1ccc(Cl)cc1
  Rango-impB inh = 4.6%
  miR-21 reporter = x
  Rango release inh = 1.3%
  GLA inh pH 4.5 = x

N/C(Cc1ccc(Cl)cc1)=N\OC(=O)C1CCCCC1
  Rango-impB inh = 0.3%
  miR-21 reporter = -27.2%
  Rango release inh = -8.1%
  GLA inh pH 4.5 = -9.1

The listing continues.
molecule,Rango-impB inh,miR-21 reporter,Rango release inh,GLA inh pH 4.5
O=C(c1cc(S(=O)(=O)N2CCOCC2)c(Cl)cc1Cl)N1CCCCC1CO (stereo not drawn),0.8%,-1.9%,0.3%,1.3
O=C(CNC(=O)c1ccc2c(c1)OCO2)Nc1cccc(Br)c1,-5.2%,x,7.6%,x
C/C(=N/NC(=O)CNC(=O)Cc1ccccc1)c1ccco1,-0.7%,-10.4%,-27.1%,-3.2
CCn1c(O)c(N=NC(=O)c2cccs2)c2ccccc21,-6.2%,-32.7%,-11.9%,-3.7
Cc1ccc(S(=O)(=O)N2CCN(C(=O)C3CCN(C(=O)c4ccc(F)cc4)CC3)CC2)c(C)c1,-6.4%,x,-11.9%,x
Cc1cc[n+]2c3c(cccc13)CCC2,3.3%,0.2%,2.4%,4.1
Cc1cc(NC(=O)Nc2cccc(Cl)c2)n(-c2ccccc2)n1,0.8%,-6.1%,1.7%,-6.8
COCCOc1ccc(C(F)(F)F)cc1NC(=O)COC(=O)c1cc([N+](=O)[O-])ccc1N1CCOCC1,u,-10.5%,-2.3%,x
O=C(NCc1ccc(Cl)cc1)C(=O)c1cn(CC(=O)N2CCOCC2)c2ccccc12,2.8%,-19.3%,-2.4%,x
COc1ccc(NC(=O)C2(N(C(=O)Cn3nnnc3N)c3ccc(OC)cc3)CCCCC2)cc1,-1.4%,5.9%,2.9%,x
N/C(=N\O)c1ccc(NC(=O)c2cccs2)cc1,2.1%,-44.5%,9.1%,1.0
CC(=O)c1ccc(OC(=O)c2ccc(-n3nc(C)cc3C)cc2)cc1,0.6%,-3.0%,30.6%,8.9
COc1ccc(Nc2ncnc3c2cnn3Cc2ccccc2)cc1,1.7%,-7.5%,0.9%,-1.4
Nc1nc2n(n1)C(c1cccs1)CC(c1ccc(F)cc1)N2 (stereo not drawn),u,-9.7%,-5.5%,-6.6
O=C(NNC(=O)c1ccccc1OCc1ccc(F)cc1)c1ccccc1O,0.0%,9.4%,u,x
O=C(c1ccco1)N1CCN(c2nc3ccccc3n3nnnc23)CC1,-7.2%,-31.9%,-21.0%,-0.7
CCN(CC(=O)NC(C)C)C(=O)c1cc(S(=O)(=O)N2CCCCC2)ccc1N1CCCCC1,-2.8%,x,-12.4%,x
COC(=O)COc1ccc(S(=O)(=O)NCc2ccco2)cc1,-5.1%,-4.9%,-10.1%,3.3
BrC(=C\c1ccccc1)/C=N/n1cnnc1,1.9%,u,0.2%,4.7
CC(C)C[C@@H](CN)NC(=O)c1nc[nH]c1C(=O)N[C@@H](CC(C)C)C(=O)CNC[C@H](C)NC(=O)c1nc[nH]c1C(=O)N[C@@H](C)C(=O)O,-0.1%,x,-6.1%,x
Cc1cc(C)cc(-n2ccn(CC(=O)NCCc3ccccc3)c(=O)c2=O)c1,2.5%,0.8%&-3.4%,7.4%,x
CCCCNC(=O)C1CCCN(S(=O)(=O)CC)C1 (stereo not drawn),-0.2%,-0.1%,0.2%,4.7
Cn1nccc1-c1cc(Cl)cc(Cl)c1O,-0.2%,-3.8%,1.2%,-15.7
Cc1ccnc(SCc2cc(=O)c(OC(=O)c3ccc(Cl)c([N+](=O)[O-])c3)co2)n1,u,-2.6%,-7.4%,-2.8

Part of the list above, as labelled records:
O=C(NNC(=O)c1ccccc1OCc1ccc(F)cc1)c1ccccc1O
  Rango-impB inh: 0.0%; miR-21 reporter: 9.4%; Rango release inh: u; GLA inh pH 4.5: x
COc1ccc(Nc2ncnc3c2cnn3Cc2ccccc2)cc1
  Rango-impB inh: 1.7%; miR-21 reporter: -7.5%; Rango release inh: 0.9%; GLA inh pH 4.5: -1.4

(next part)
molecule,Rango-impB inh,miR-21 reporter,Rango release inh,GLA inh pH 4.5
O=C(COc1ccccc1[N+](=O)[O-])N/N=C/c1ccc(O)c([N+](=O)[O-])c1,-4.3%,-22.5%,-8.6%,2.2
O=C(O)c1sc2ncccc2c1OCc1ccccc1,0.8%,-6.1%,-6.7%,-18.4
C[n+]1c2n(c3ccccc31)N=C(c1ccc(Cl)cc1)CS2,3.7%,24.1%,31.5%,-1.2
CCN(CC(=O)Nc1cc(Cl)ccc1C)C(=O)Cn1c(=O)cnc2ccccc21,-3.3%,x,22.7%,x
CN(CC(=O)Nc1ccccc1Br)C(=O)c1cc(S(=O)(=O)N(C)C)ccc1N1CCCC1,-0.9%,x,-6.2%,x
O=C(COc1ccccc1F)NCC(c1ccc(F)cc1)N1CCOCC1 (stereo not drawn),-1.2%,x,0.9%,x
O=C(O)c1ccc(NC(CSCc2ccccc2F)C(=O)O)c([N+](=O)[O-])c1 (stereo not drawn),-1.7%,-0.5%,-2.1%,-2.7
C=CCN(CC=C)Cc1c(O)ccc2c(=O)c(-c3ccccc3)coc12,3.7%,-10.1%,-6.6%,x

These rows are one share of the data; rates above refer to the full screens.
